Compound activity from PubChem.
RE007 growth inh = less growth of the S. pombe RE007 Vpr strain; S. pombe RE007 Vpr strain, BacTiter-Glo ATP luminescence, 24 h; control for the full effect not named in the record; Potency, µM (highest dose often 92.2 µM), for inactives: at the highest dose activity change, negative = less growth; 0.21% of 360,000 active; active = well fitted falling curve with a large enough effect; inconclusive = small, poorly fitted or top-dose-only effect; inactive = no such curve, though single readings can be large or run the other way;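 note: % is set by controls: 0 for no effect and ±100 for the full control effect; nearly all actives have a fitted effect of over 50% in size; the assay follows cell death caused by Vpr and the record does not say whether a fall means rescue or toxicity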
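Fission yeast strain RE007, carrying one chromosomally integrated HIV-1 vpr copy, was seeded at OD 0.01 in PMG+AL medium with 23 nL pinned compound. After 24 h at 30 °C and 99% humidity, viability was read by BacTiter-Glo luminescence.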
LASV entry inh = inhibitors of Lassa virus binding or cell entry; Lassa virus pseudotype entry inhibition, cell reporter; control for the full effect not named in the record; Potency, µM (highest dose often 37.9 µM), inactives show top-dose activity change, negative = inhibition, actives largely listed as inhibitors; 1.2% of 300,000 active; active means well fitted inhibition curve with a large enough effect; inconclusive means small, poorly fitted or top-dose-only effect, or effect the other way; inactive means flat fitted curve, though single readings scatter; tested in HEK293 cells; note: % is set by controls: 0 for no effect and ±100 for the full control effect; nearly all actives have a fitted effect of over 50% in size; luciferase read-out
2A StopGo = lowers the luciferase signal of an FMDV 2A StopGo reporter. AID 1159524. 1.2% of 410,000 active. human cells with a luciferase reporter of 2A StopGo recoding; control for the full effect not named in the record. Potency, µM (doses to about 57.9 µM), for the others: at the highest dose signal change, negative = less light; active = well fitted falling curve with a large enough effect; inconclusive = small, poorly fitted or top-dose-only effect; inactive = no such curve, though single readings can be large or run the other way; tested in HEK293T cells; note: % is set by controls: 0 for no effect and ±100 for the full control effect; nearly all actives have a fitted effect of over 45% in size; luciferase light after 4 h
NS1 function inh = blocks influenza NS1 protein function. 0.4% of 270,000 active. S. cerevisiae slowed by influenza A NS1, growth recovery by OD600. Potency, µM (doses to about 46.1 µM), for the others: at the highest dose activity, positive = more growth; active means well fitted rising curve with a large enough effect; inconclusive means small, poorly fitted or top-dose-only effect; inactive means no such curve, though single readings can be large or run the other way; note: nearly all actives have a fitted effect of over 50% in size
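Read-out: OD600 growth recovery of NS1-expressing budding yeast. Cells grown overnight at 30C in -URA glucose medium, washed, resuspended and diluted 1:100 in 2% galactose assay medium, pH 6.0. Same strain lacking NS1 served as positive control.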
MARV entry inh = inhibitors of Marburg virus binding or cell entry; Marburg virus pseudotyped entry inhibition, cell reporter; control for the full effect not named in the record; about a third of the inactives were read at about 46 µM; Potency, µM (top dose mostly 37.8 µM), for inactives: at the highest dose activity change, negative = inhibition, most hits filed as inhibitors; 1.8% of 300,000 active; active = well fitted inhibition curve with a large enough effect; inconclusive = small, poorly fitted or top-dose-only effect, or effect the other way; inactive = flat fitted curve, though single readings scatter; tested in HEK293 cells; about a fifth of its hits are not listed in these tables; note: % is set by controls: 0 for no effect and ±100 for the full control effect; luciferase read-out
SARS PLP yeast = SARS-CoV PLP inhibition in yeast; S. cerevisiae expressing SARS-CoV PLpro, growth rescue; control for the full effect not named in the record; Potency, µM (top dose mostly 32.9 µM), inactives show at the highest dose activity, positive = growth rescue; 0.19% of 330,000 active; active means well fitted rising curve with a large enough effect; inconclusive means small, poorly fitted or top-dose-only effect; inactive means no such curve, though single readings can be large or run the other way; note: 0% is about no effect; nearly all actives have a fitted effect of over 55% in size; growth read by luminescence after 48 h
Cruzain noTriton = blocks cruzain activity in detergent-free assay; P25779; purified cruzain, Z-FR-AMC fluorescence, no detergent; Potency, µM, for the others: max response, negative = inhibition, actives largely listed as inhibitors; 2.3% of 200,000 active; AID 1476;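 note: plate controls were enzyme without inhibitor for no effect and buffer without enzyme for full effect; nearly all actives have a fitted effect of over 40% in size; top concentration of the series not given in the record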
Target sequence (P25779 123-467 limits assumed): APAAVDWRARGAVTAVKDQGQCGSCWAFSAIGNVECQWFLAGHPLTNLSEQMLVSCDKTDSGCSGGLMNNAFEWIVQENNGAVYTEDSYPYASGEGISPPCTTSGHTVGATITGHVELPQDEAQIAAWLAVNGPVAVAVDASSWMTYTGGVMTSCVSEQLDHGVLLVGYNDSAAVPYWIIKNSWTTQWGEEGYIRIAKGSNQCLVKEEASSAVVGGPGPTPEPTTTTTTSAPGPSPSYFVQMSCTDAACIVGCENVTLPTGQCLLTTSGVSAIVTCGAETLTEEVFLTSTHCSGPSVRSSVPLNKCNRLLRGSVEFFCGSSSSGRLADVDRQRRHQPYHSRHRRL
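Detergent-free condition (0.00005% Triton X-100) in acetate buffer pH 5.5 with DTT. 1.5 nM enzyme and compound were pre-mixed 15 min, then 2 uM Z-FR-AMC substrate added; reaction progress from fluorescence change between first and third reads (60 s).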
Cruzain Triton = cruzain (T. cruzi) inhibition with detergent. P25779. purified cruzain, Z-FR-AMC fluorescence, 0.01% Triton. Potency, µM, for the others: max response, negative = inhibition, hits mostly inhibitors. 0.43% of 200,000 active. AID 1478;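 note: plate controls were neutral wells for no effect and buffer without enzyme for full effect; nearly all actives have a fitted effect of over 40% in size; top concentration of the series not given in the record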
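Enzyme 1.5 nM, Z-FR-AMC 2 uM, NaOAc 100 mM pH 5.5, DTT 5 mM, Triton X-100 0.01%; 15 min RT compound preincubation; kinetic ex360/em450, 60 s delta.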
Numbers without * were called inactive; ? = inconclusive; · = not tested or not shown; & = joins results of further samples; [ ] = remark or other dose. Unless noted, calls come from the whole dose curve; as a rule, active = well fitted curve in the direction sought with a large enough effect; inconclusive = small, poorly fitted or top-dose-only effect, or another doubt; inactive = no such curve, though single readings can be large; an effect the other way counts as inactive or inconclusive. Potency is the fitted concentration of half-maximal effect.

(1) COc1ccc(CC/C(C)=N\NC(N)=O)cc1
(2) COc1ccc(F)cc1S(=O)(=O)n1cc(C)nc1-c1ccccc1
(3) Cc1cc(C)c(C(N)=O)c(NC(=O)Nc2ccccc2)n1
(4) COc1ccc(/C=N/Nc2nc(Nc3ccccc3)nc(N3CCCCC3)n2)c(OC)c1
(5) Cc1ccc(/C=N/NC(=O)c2cc(C)oc2C)cc1
(6) Cc1cccc(NS(=O)(=O)c2cc3c(cc2C)NC(=O)CO3)c1
compound no.,1,2,3,4,5,6
SARS PLP yeast,-15%,0%,1%,14%,-2%,1%
LASV entry inh,-1%,13%,19%,1%,?,·
RE007 growth inh,-9%,-21%,3%,-3%,-26%,-1%
Cruzain noTriton,5%,-11%,0%,?,·,·
2A StopGo,-2%,-14%,-5%,-14%,17%,27%
MARV entry inh,-6%,6%,-11%,?,10µM*,·
NS1 function inh,-2%,5%,2%,?,-1%,-3%
Cruzain Triton,0.3%,-1.9%,0.2%,-7.2%,·,·

(7) CCOc1ccc(NC(=O)c2ccc(NC(=O)N3CCSc4ncccc43)cc2)cc1
(8) O=C1NCCn2ccc(=O)cc21
(9) CC(=O)Nc1ccc2c(c1)nc(CCNC(=O)c1ccco1)n2C
(10) O=C1NN(c2ccccc2)C(=O)/C1=C/c1ccc(Sc2cccc3ccccc23)o1
(11) COc1ccc(C(=O)N2CCCc3ccccc32)cc1
(12) O=C(O)C1(Nc2ccccc2)CCCC1
compound no.,7,8,9,10,11,12
SARS PLP yeast,·,0%,-4%,-13%,-5%,·
LASV entry inh,3%[46.1 µM],·,·,-1%,-1%,18%[46.1 µM]
RE007 growth inh,·,12%,-12%,-5%,-15%,-1%
Cruzain noTriton,3%,·,·,19%,-16%,·
2A StopGo,32µM*,7%,-3%,-23%,8%,-8%
MARV entry inh,·,·,-4%[46.1 µM],?,0%,4%[46.1 µM]
NS1 function inh,·,0%,-10%,3%,-19%,·
Cruzain Triton,-8.2%,·,·,-24%,3.0%,·

(13) CCOc1ccc(C2C(C(=O)Nc3cc(C)on3)c3ccccc3C(=O)N2CCN2CCOCC2)cc1 (stereo unspecified)
(14) CCC(c1nnnn1C(C)C)N1CCN(C2CCCC2)CC1 (stereo unspecified)
(15) COc1cc(OC)cc(-c2c(-c3cccs3)c3cc(-c4ccc(OC)cc4F)ccc3n2C)c1
(16) CC(C)c1cc(-c2nc(-c3ccc(Cl)cc3)no2)n[nH]1
(17) CC(CP(=O)(O)O)NC(=O)Cc1ccccc1 (stereo unspecified)
(18) CCC1(c2ccccc2)NC(=O)N(CC(=O)Nc2ccc(S(=O)(=O)NC3=NCCCCC3)cc2)C1=O (stereo unspecified)
compound no.,13,14,15,16,17,18
SARS PLP yeast,0%,3%,-26%,·,-7%,-1%
LASV entry inh,·,16%,·,?,?,-10%
RE007 growth inh,15%,10%,5%,·,-17%,5%
Cruzain noTriton,·,-10%,·,10%,3%,·
2A StopGo,10%,-18%,-12%,-16%,14%,-15%
MARV entry inh,-16%[46.1 µM],8%,-3%,·,-13%,?
NS1 function inh,·,3%,·,·,4%,·
Cruzain Triton,·,2.5%,·,-12%,0.8%,·

(19) CCc1nnc(NC(=O)c2nc(Cl)ccc2Cl)s1
(20) O=C(CNC(=S)N(CCCN1CCOCC1)Cc1cccs1)NCc1ccccc1
(21) COC(=O)C1=C(C)N(Cc2ccccc2)C(=NCc2cc(OC)c(OC)c(OC)c2)N[C@H]1CCc1ccccc1
(22) CCc1nc(N2CCC(C)CC2)c2oc3ccccc3c2n1
(23) CCN1CCN(C(CNS(=O)(=O)c2ccc(Cl)cc2)c2ccccc2)CC1 (stereo unspecified)
(24) O=C(O)c1cc(C(=O)O)c(-c2ccccc2)c(C(=O)O)c1
compound no.,19,20,21,22,23,24
SARS PLP yeast,2%,-1%,-15%&-2%,0%,11%,8%
LASV entry inh,·,·,·,-12%,·,-16%
RE007 growth inh,-7%,-2%,-7%,?,1%,-17%
Cruzain noTriton,·,·,·,-17%,·,0%
2A StopGo,-12%,-2%,?,-28%,-8%,-24%
MARV entry inh,·,·,·,?,·,-6%
NS1 function inh,-12%,-2%,8%,-110%,-5%,1%
Cruzain Triton,·,·,·,-3.3%,·,6.3%

(25) CC(=O)Nc1ccc(NC(=O)CCC(=O)c2ccc(C)cc2)cc1
(26) O=C(c1ccco1)n1nc(-c2ccco2)nc1SCc1ccccc1
(27) CC(=O)c1cc2c(cc1N/C(=N/S(=O)(=O)c1ccc(F)cc1)c1ccccc1)OCO2
(28) CN(Cc1ccccc1)C(=O)COC(=O)c1ccc2ccccc2n1
(29) CCn1nc(C(=O)Nc2nc3ccccc3[nH]2)c2ccccc2c1=O
(30) CN1CCN(S(=O)(=O)c2cccc(C(=O)Nc3cccc([N+](=O)[O-])c3)c2)CC1
compound no.,25,26,27,28,29,30
SARS PLP yeast,·,-8%,·,-3%,4%,·
LASV entry inh,13%[46.1 µM],18%,20%[46.1 µM],-9%,4%,3%
RE007 growth inh,·,-6%,·,-3%,-4%,-7%
Cruzain noTriton,-7%,?,-4%,·,-15%,·
2A StopGo,-14%,37%[activator],-1%,15%,-16%,0%
MARV entry inh,·,?,·,1%[46.1 µM],?,?
NS1 function inh,·,-112%,·,·,11%,·
Cruzain Triton,-0.2%,3.5%,0.9%,·,-7.9%,·

Look-ups from the results shown:
In Cruzain Triton, cpd 25 shows -0.2%
In LASV entry inh, cpd 30 shows 3%
In Cruzain noTriton, cpd 27 shows -4%

More records
(31) COc1ccc(NC(=S)NNC(=O)CNc2ccc(Cl)cc2)cc1
(32) COc1cc(C(CC(=O)Nc2cc(C)ccn2)N2Cc3ccccc3C2=O)cc(OC)c1OC (stereo unspecified)
(33) CC(=O)Oc1ccc(-c2cccc(C(=O)NCCO)c2)cc1
(34) COc1ccc(CCNC(=O)Cn2c(=O)cc(C(F)(F)F)c3c(C)nn(C)c32)cc1OC
(35) c1ccc(-c2ccccc2OCCN2CCOCC2)cc1
(36) Oc1[nH]c2ccc(Br)cc2c1N=NC(=S)Nc1ccc(F)cc1
compound no.,31,32,33,34,35,36
SARS PLP yeast,0%,1%,-1%,·,3%,-1%
LASV entry inh,-5%,?,1%,26%[46.1 µM],-15%,?
RE007 growth inh,-5%,10%,0%,·,-7%,2%
Cruzain noTriton,·,-1%,·,6%,2%,·
2A StopGo,-15%,30%&26%,30%,-10%,-8%,25%
MARV entry inh,-18%,-29%&-29%,?,·,?,?
NS1 function inh,·,3%,·,·,2%,4%
Cruzain Triton,·,-1.8%,·,-0.7%,0.8%,·

(37) COC(=O)CSc1ncc(C#N)c(N)n1
(38) CCN(C(=O)CN1C(=O)S/C(=C\c2ccc(Cl)cc2)C1=O)C1CCS(=O)(=O)C1 (stereo unspecified)
(39) O=C(CS(=O)(=O)c1cn(CC(=O)N2CCOCC2)c2ccccc12)Nc1ccccc1F
(40) CCOc1cc(S(=O)(=O)n2nc(C)cc2C)ccc1F
(41) O=C1C(=O)N(CCCN2CCOCC2)C(c2ccc(Cl)cc2)/C1=C(\O)c1ccc2c(c1)OCCO2 (stereo unspecified)
(42) O=C(N=C1SC2CS(=O)(=O)CC2N1c1ccc(F)cc1)C1CCCCC1 (stereo unspecified)
compound no.,37,38,39,40,41,42
SARS PLP yeast,-1%,-2%,?,1%,-1%,3%
LASV entry inh,?,·,21%,20%,·,?
RE007 growth inh,7%,9%,-4%,11%,-10%,-1%
Cruzain noTriton,-21%,·,·,-10%,·,·
2A StopGo,11%,-18%,-1%,6%,-6%,-17%
MARV entry inh,?,·,-15%,-5%,·,·
NS1 function inh,-1%,7%,6%,-3%,4%,-6%
Cruzain Triton,1.2%,·,·,0.4%,·,·

(43) O=S(=O)(c1ccccc1)C(/C=N\O)/C=C/c1ccccc1 (stereo unspecified)
(44) S=c1[nH]nc(-c2ccncc2)n1/N=C/c1cn(-c2ccccc2)nc1-c1ccccc1
(45) CCC(C)(C(=O)NC1CCCC1)N(Cc1cccs1)C(C)=O (stereo unspecified)
(46) Cc1ccc(N2CS(=O)(=O)/C(=C/N(C)C)C2=O)cc1
(47) CC1CN(c2ccc([N+](=O)[O-])c(N3CCCCC3)c2)CCN1 (stereo unspecified)
(48) O=S(=O)(c1ccc(Cl)nc1)N1CCCc2ccccc21
compound no.,43,44,45,46,47,48
SARS PLP yeast,0%,0%,-3%,1%,0%,-14%
LASV entry inh,6%,·,7%,25%,8%[46.1 µM],10%
RE007 growth inh,1%,3%,-18%,2%,-3%,2%
Cruzain noTriton,·,·,1%,3%,·,4%
2A StopGo,-4%,52%[activator],-11%,15%,-16%,-14%
MARV entry inh,-14%[46.1 µM],·,-8%,8%,-33%[46.1 µM],-1%
NS1 function inh,·,15%,2%,5%,5%,-3%
Cruzain Triton,·,·,-0.8%,4.3%,·,-0.1%

(49) COc1cc(/C=C2\SC(c3ccc(C)cc3)=NC2=O)cc(OC)c1OC
(50) COCCNC(=O)C1CCN(Cc2cc3ccccc3n2Cc2ccc(C)cc2)CC1
(51) Cn1c(=O)oc2cc(S(=O)(=O)NC3CCN(Cc4ccccc4)CC3)ccc21
(52) O=C(/C=C/c1ccco1)N1CCc2ccccc21
compound no.,49,50,51,52
SARS PLP yeast,2%,·,20%,-13%
LASV entry inh,-39%,-19%[46.1 µM],·,?
RE007 growth inh,-3%,·,-10%,?
Cruzain noTriton,?,2%,3%,·
2A StopGo,·,15%,-4%,-45%
MARV entry inh,?,·,·,?
NS1 function inh,?,·,-3%,·
Cruzain Triton,-11%,-0.8%,1.6%,·

Limited to Cruzain Triton, LASV entry inh and Cruzain noTriton, for three of the compounds above:
#	Structure	Cruzain Triton	LASV entry inh	Cruzain noTriton
51	Cn1c(=O)oc2cc(S(=O)(=O)NC3CCN(Cc4ccccc4)CC3)ccc21	1.6%	·	3%
49	COc1cc(/C=C2\SC(c3ccc(C)cc3)=NC2=O)cc(OC)c1OC	-11%	-39%	?
50	COCCNC(=O)C1CCN(Cc2cc3ccccc3n2Cc2ccc(C)cc2)CC1	-0.8%	-19%[46.1 µM]	2%
